# From PubChem
# Mtb growth: Mycobacterium tuberculosis H37Rv growth inhibition, cell based, confirmatory dose response (AID 1949); most inactive calls were filed without a number and no value below 0 was filed; inhibition, % at 10 µg/mL; hits with a dose series show IC50 in µg/mL; actives 1.6% (n = 100,000);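 active = confirmed in a dose series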;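 also: bacteria grown 7 days with compound before Alamar blue readout; 0% = untreated bacteria and 100% = reference antibiotic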
# Numbers without * were called inactive; i = inactive. An excerpt, so the mix of outcomes need not match the whole.
# The opening 8 records as a preview:
SMILES,Mtb growth
CCOC(=O)CSc1n[nH]c(CC)n1,0.3%
O=C(NCc1ccccc1Cl)C1CCN(S(=O)(=O)c2ccc(F)cc2)CC1,2.4%
Oc1ccc(-c2nc3cc4ccccc4cc3nc2-c2ccccc2)cc1,0.96µg/mL*
CCCc1cc(=O)n2[nH]c(Cc3ccccc3)c(-c3cccc4ccccc34)c2n1,12.4%
CC(=O)c1cccc(NC(=O)c2ccccc2[N+](=O)[O-])c1,1.6%
CCOC(=O)c1ccc(NC(=O)c2cc(Br)ccc2OC)cc1,i
FC(c1nc2ccc(Cl)cc2[nH]1)C(F)(F)F (stereo not drawn),3.4%
Cc1ccc([N+](=O)[O-])cc1S(=O)(=O)N(C)c1ccccc1,9.5%

# The whole of this part (from the top)
SMILES,Mtb growth
CCOC(=O)CSc1n[nH]c(CC)n1,0.3%
O=C(NCc1ccccc1Cl)C1CCN(S(=O)(=O)c2ccc(F)cc2)CC1,2.4%
Oc1ccc(-c2nc3cc4ccccc4cc3nc2-c2ccccc2)cc1,0.96µg/mL*
CCCc1cc(=O)n2[nH]c(Cc3ccccc3)c(-c3cccc4ccccc34)c2n1,12.4%
CC(=O)c1cccc(NC(=O)c2ccccc2[N+](=O)[O-])c1,1.6%
CCOC(=O)c1ccc(NC(=O)c2cc(Br)ccc2OC)cc1,i
FC(c1nc2ccc(Cl)cc2[nH]1)C(F)(F)F (stereo not drawn),3.4%
Cc1ccc([N+](=O)[O-])cc1S(=O)(=O)N(C)c1ccccc1,9.5%
COc1ccc(Cl)cc1C(=O)NCCN(C)C,i
CCn1c(/C=C/c2ccc(Cl)cc2)nc2ccccc21,35.5%
COc1cc2c(cc1OC)CN(C(=O)CSc1cc(C)c3ccccc3n1)CC2,i
Nc1nc(Nc2ccc(Cl)cc2Cl)nc(C(F)(F)F)n1,i

# As entered above.
# For Mtb growth, `CCOC(=O)CSc1n[nH]c(CC)n1` has the entry 0.3%
# For Mtb growth, `FC(c1nc2ccc(Cl)cc2[nH]1)C(F)(F)F` (stereo not drawn) has the entry 3.4%
# For Mtb growth, `Oc1ccc(-c2nc3cc4ccccc4cc3nc2-c2ccccc2)cc1` has the entry 0.96µg/mL*
# For Mtb growth, `CCCc1cc(=O)n2[nH]c(Cc3ccccc3)c(-c3cccc4ccccc34)c2n1` has the entry 12.4%

# (more compounds)
SMILES,Mtb growth
COc1cccc(-c2coc3cc4oc(=O)cc(C)c4cc23)c1,i
O=C(Nc1c(Cl)cccc1Cl)c1cc2ccccc2o1,8.7%
COC(=O)Nc1nc(-c2ccccc2)c(-c2ccccc2)s1,i
CCOC(=O)c1c(NC(=O)CSc2nccc(C)n2)sc2c1CCCC2,i
NC(=O)c1sc2nc3c(c(-c4ccco4)c2c1N)CCCC3,0.6%
CCn1nnc(NC(=O)Cc2ccccc2)n1,i
CCc1c(C)nc2c(-c3ccccc3OC)c(C)[nH]n2c1=O,i
Cc1ccc(C)c(NC(=O)CN2CCOCC2)c1,i
CCn1c(SCC(=O)Nc2nc(-c3ccccc3)c(C)s2)nnc1C(C)NC(=O)c1ccccc1 (stereo not drawn),i
COc1ccc(NS(=O)(=O)c2ccc(NS(=O)(=O)c3ccc(C)c([N+](=O)[O-])c3)cc2)c(OC)c1,i
CCC(C)Oc1c(Cl)cc(/C=C\[N+](=O)[O-])cc1OC (stereo not drawn),i
Cc1ccccc1N1C(=O)NC(=O)/C(=C\c2ccc([N+](=O)[O-])o2)C1=O,i
Cc1ccc(N2CC(C(=O)OCc3cccc(C(=O)Oc4ccccc4)c3)CC2=O)cc1 (stereo not drawn),i
CNC(=O)c1cccc(NC(=S)NC)c1,i
CC(=O)Nc1ccc(Nc2nc(C)cc(C)n2)cc1,i
Cc1ccc(NS(=O)(=O)c2ccc(NS(=O)(=O)c3ccc(F)cc3)cc2)cc1Cl,i
Cn1c(=O)c2c(nc(Oc3ccc(F)cc3)n2C)n(C)c1=O,i
O=C(Nc1nc(-c2ccc(Cl)cc2Cl)cs1)c1ccccc1F,i
Nc1ccc(Sc2ccc(N)cc2)cc1,i
COc1ccc(C(CC(=O)O)NC(=O)C(c2ccccc2)c2ccccc2)cc1 (stereo not drawn),i
CN(C)c1ccc(C2C=C(c3ccccc3)Nc3nnnn32)cc1 (stereo not drawn),1.3%
COc1cccc(C(=O)COc2ccc3c(-c4ccccc4)cc(=O)oc3c2)c1,3.6%
CCN1C(=O)c2ccc(C(=O)Nc3nccs3)cc2C1=O,i
COc1cc(Br)cc(C=O)c1O,i
CCCOc1cccc(C(=O)Nc2ccc(Cl)cc2C(F)(F)F)c1,3.3%
COC(=O)c1c(NC(=O)c2csc(C)c2)sc(C)c1C,i
COc1ccc(C(=O)NCc2cccnc2)cc1Br,2.4%
CC(=O)c1ccc(OCCCCN2CCN(C)CC2)cc1,i
Cc1ccc(CNC(=O)CSc2nc3c(c(C(F)(F)F)c2C#N)CCCCCC3)cc1,7.5%
COc1cccc(C(=O)NCCN(C)C)c1OC,i
COc1ccc(S(=O)(=O)N(CC(=O)N2CCc3ccccc3C2)c2cc(C)cc(C)c2)cc1OC,3.4%
CCCOc1ccc(/C(O)=C2\C(=O)C(=O)N(c3nc(C)c(C(=O)OC)s3)C2c2cccs2)cc1 (stereo not drawn),i
CCC(C)c1ccc(OCC(=O)NCc2ccco2)cc1 (stereo not drawn),i
CCNC(=O)c1ccc(N(C)S(=O)(=O)c2ccccc2)cc1,i
CCC(C)NS(=O)(=O)c1ccc(OCC(=O)Nc2cccc(Cl)c2Cl)cc1 (stereo not drawn),i
CCS(=O)(=O)Nc1ccc(C2=NN(C(=O)c3ccccc3)C(c3ccccc3)C2)cc1 (stereo not drawn),32.4%
C=CCNC(=O)C(=O)Nc1ccc([N+](=O)[O-])cc1,1.3%
COc1ccc(-c2nc(SC)n(S(=O)(=O)c3ccccc3)n2)cc1,5.2%
O=C1CC(c2cccs2)c2cc3c(cc2N1)OCCO3 (stereo not drawn),2.1%
COc1ccc(C(=O)NCCSCc2ccccc2Cl)cc1OC,0.6%
COCC(=O)N(C)C1(c2nnnn2CCOC(=O)Nc2ccc(Cl)cc2)CCCCC1,i
Cc1ccccc1C(=O)Nc1cccc(-c2nnc(SCC(=O)N3CCCCC3)n2C)c1,i
CC(C)CC(C(=O)Nc1cc(Cl)cc(Cl)c1)N1C(=O)c2ccccc2C1=O (stereo not drawn),i
O=C(C1CCNCC1)N1CCc2ccccc2C1,i
CN1CCc2nc3sc(C(N)=O)c(N)c3c(-c3cccs3)c2C1,0.9%
CCN1CCN(CCOCCSc2ccc(Cl)cc2)CC1,i
Fc1cccc(NC(=S)Nc2ccccc2)c1,i
CCCC(=O)Nc1ccc(Cl)c(NC(=O)c2ccc(C)c(C)c2)c1,0.7%
Cc1cc(NC(=O)c2ccc3ccccc3c2)ccc1Br,i
Cc1ccc(C)c(-c2nn(-c3cc(N4CCN(C)CC4)ccc3[N+](=O)[O-])c(=O)c3ccccc23)c1,1.76µg/mL*
Cc1ccc(S(=O)(=O)N(CC(=O)N2CCN(c3ccccc3)CC2)c2cc(Cl)ccc2C)cc1,2.6%
Cc1cccc(C(=S)N2CCN(Cc3ccccc3)CC2)c1,i
Cc1cccc(NC(=O)COc2cc(C)c(Br)c(C)c2)n1,i
CCOC(=O)CNC(=S)N1CCC(c2nc3ccccc3[nH]2)CC1,0.9%
O=C(Cc1ccccc1)NC(=S)Nc1ccc(C(=O)O)c(Cl)c1,i
CC1=NN(c2nc(-c3ccc(F)cc3)cs2)C(=O)/C1=C\c1ccc(O)cc1,i
C=CCc1ccc(OCC(=O)N2CCCC2)c(OC)c1,i
COc1ccc(S(=O)(=O)Nc2ccc(Cl)cc2F)cc1,i
O=[N+]([O-])c1ccc(-c2nnc(SCc3ccc(Br)cc3)n2-c2ccccc2)cc1,i
Cc1cc2c(cc1C)N(C(=O)CSc1nccn1C)C(C)(C)c1ssc(=S)c1-2,5.4%

# Following part:
SMILES,Mtb growth
CCOc1ccc(S(=O)(=O)NCCOC)c2ccccc12,i
O=C(Cc1ccc(Cl)cc1)Nc1ccc(C(=O)NC2CCCCC2)cc1,i
Cc1cc(C)c2c(n1)sc1c(N3CCN(Cc4ccccc4)CC3)ncnc12,i
CCC(Oc1ccccc1)C(=O)Nc1sc2c(c1C#N)CCCC2 (stereo not drawn),i
CCOc1ccc(CC(=O)NNC(=S)Nc2ccc3c(c2)OCO3)cc1OCC,3.5%
O=C(NCc1ccc(Cl)c(Cl)c1)C1c2ccccc2Oc2ccccc21,i
O=C(Nc1ncc(Cc2ccccc2Cl)s1)c1sc2ccccc2c1Cl,46.8%
CCCOc1cccc(C(=O)Nc2cc(C)c(I)cc2C)c1,i
C=CCc1ccccc1OCC(=O)NNC(=S)NCc1ccccc1,1.6%
COc1ccc(-c2noc(C3CCCCC3)n2)cc1OC,1.1%
Cc1nc2cc(NS(=O)(=O)c3ccc(Br)cc3)ccc2n1C,i
COc1ccc(CNCc2cccc(OC)c2)cc1,i
COc1ccc2c(c1)C(C)=CC(C)(C)N2,i
O=C(Cn1cnc2scc(-c3ccccc3)c2c1=O)OC1CCCCC1,i
CC(=O)Nc1cccc(N2C(=O)CC(Cc3cccc(C)c3)C2=O)c1 (stereo not drawn),i
CCCC1CCC(c2ccc(OC(C)=O)cc2)CC1 (stereo not drawn),i
O=C(NCCc1c[nH]c2ccccc12)C(Cl)Cl,2.63µg/mL*
Cc1ccnc(NC(c2cccc(Cl)c2)c2ccc3ccc(C)nc3c2O)c1 (stereo not drawn),1.1%
Cc1ccc(C(=O)n2cnnc2N)cc1Cl,0.2%
CCCCNC(=O)c1cc2ccccc2s1,i
CC(=O)c1ccc(NC(=O)c2cccc(NC(=O)c3ccccc3Cl)c2)cc1,i
COc1cccc(COc2noc3nc4c(cc23)CCCC4)c1,4.9%
COc1cccc2cc(C(=O)Nc3cccc(C(F)(F)F)c3)c(=O)oc12,i
CCN(CC(=O)Nc1ccccc1F)S(=O)(=O)c1ccc2ccccc2c1,0.8%
O=C(CCCCO)NCc1ccccc1,i
CCN(c1ncnc(N)c1[N+](=O)[O-])C1CCCCC1,i
CN(C)CCCn1c(N)nc2ccccc21,0.7%
O=C(Nc1ccc(N2CCOCC2)c2nonc12)c1csc2ccccc12,i
CC(=O)c1cc(C)ccc1OC(=O)c1cccnc1,i
O=C(CSCc1ccc([N+](=O)[O-])cc1)Nc1ccc2c(c1)OCO2,i
Cc1c(Cc2ccccc2)sc(NC(=O)CCc2ccccc2)c1C(N)=O,i
O=Cc1ccc(Sc2nc3ccccc3[nH]2)o1,i
COc1ccc2c(Cl)c(C(=O)Nc3cccc(C(F)(F)F)c3)sc2c1Cl,i
O=c1c2c3c(sc2ncn1/N=C/c1ccc(OC(F)F)cc1)CCCC3,i
Cc1ccc(C(=O)CC2(O)C(=O)N(CCc3ccccc3)c3ccc(Br)cc32)o1 (stereo not drawn),5.7%
CCN1CCN(CCCOc2ccc(-c3ccccc3)cc2)CC1,i
CCOc1cc(CNC2CCCC2)ccc1OCC(=O)Nc1ccccc1,i
COc1cccc(S(=O)(=O)Nc2ccc(Cl)c(C(F)(F)F)c2)c1,i
CCOc1ccc(S(=O)(=O)N2CCCCCC2)cc1C,1.3%
CC(Sc1n[nH]c(N)n1)C(=O)OC1CCCCC1 (stereo not drawn),i
Cc1ccc(N2CCN(C(=O)c3ccc([N+](=O)[O-])cc3)CC2)cc1C,i
CCc1cccc(CC)c1NC(=O)CCN1C(=O)C2C3C=CC(C4CC34)C2C1=O (stereo not drawn),i
COc1ccc2oc(-c3cccc(NC(C)=O)c3)nc2c1,i
Cc1cc(C)c(C#N)c(SCc2ccc(C#N)cc2)n1,i
COC(=O)c1cccc(NC(=O)CSc2nnc(C(C)NC(=O)c3ccc(Cl)c(Cl)c3)n2C)c1 (stereo not drawn),i
COc1ccccc1N1CCN(CCOc2cccc3ccccc23)CC1,i
CC(NC(=O)C1CCN(S(=O)(=O)c2ccccc2)CC1)c1ccccc1 (stereo not drawn),i
COc1ccc(C2C3CCCC=C3C(C#N)=C(N)C2(C#N)C#N)cc1 (stereo not drawn),i
Clc1ccccc1CN1CCN(Cc2ccncc2)CC1,5.2%
Cc1cc(OCC(=O)O/N=C(\N)c2ccccn2)cc(C)c1Br,i
Cc1ccc(C)c(C(=O)NC2CCCCC2)c1,2.5%
C=CCn1c(SCC(=O)Nc2c(Cl)cc(Cl)cc2Cl)nnc1-c1ccc(OC)cc1,i
COc1ccc(NC(=O)C(C)Oc2ccc(Cl)c(C)c2)cc1Cl (stereo not drawn),i
Cc1ccnc(NC(=O)Cc2ccc(Br)cc2)c1,i
Cc1cc(Br)c(NC(=O)CCNC(=O)OCc2ccccc2)cc1C,i
CCOc1ccc(-n2cnnn2)cc1S(=O)(=O)Nc1c(C)cccc1C,i
Cc1onc(-c2c(F)cccc2Cl)c1C(=O)N1CCN(c2ncccn2)CC1,i
CCC(=O)Oc1ccc(C(=O)Nc2cccc3c2C(=O)NC3=O)cc1,i
Cc1cc(C)c(C#N)c(SCC(O)CS(=O)c2ccc(C(C)(C)C)cc2)n1 (stereo not drawn),1.1%
Cc1cc(Cl)c(OCCCN2CCNCC2)c(Br)c1,i

# (list continues)
SMILES,Mtb growth
Cc1cc(=O)[nH]c(SCC(=O)N2CCN(C(c3ccccc3)c3ccccc3)CC2)n1,i
O=C(Nc1cccc(C(=O)N2CCc3ccccc3C2)c1)c1ccccc1,i
COc1ccc(OC)c(S(=O)(=O)Nc2ccccc2SC)c1,i
CCOC(=O)c1cc(Cc2ccccc2)sc1NC(=S)NCc1cc(C)n(C)n1,i
O=C(c1cccc(CN2C(=O)c3ccccc3C2=O)c1)c1ccccn1,i
COc1ccc(Oc2ccc(NC(=O)c3ccc([N+](=O)[O-])cc3)cc2)cc1,0.8%
COc1ccc(NC(=O)c2sc3nc4c(c(C(F)(F)F)c3c2N)CCCC4)c(OC)c1,i
COc1ccc(C(=O)Nc2ccccc2N2CCN(C(=O)C(C)C)CC2)cc1Cl,i
Cc1cc(C)cc(C(=O)NC(=S)Nc2ccc3oc(-c4cccc(F)c4)nc3c2)c1,i

# Nothing new here: 2 of the compounds above.
SMILES,Mtb growth
Cc1cc(=O)[nH]c(SCC(=O)N2CCN(C(c3ccccc3)c3ccccc3)CC2)n1,i
O=C(Nc1cccc(C(=O)N2CCc3ccccc3C2)c1)c1ccccc1,i
